Rango release inh = qHTS Assay for Inhibitors of RanGTP induced Rango (Ran-regulated importin-beta cargo) - Importin beta complex dissociation; Biochemical FRET Rango-importin beta, RanGTP-induced dissociation; 0.071% of 340,000 active; Potency, µM (highest dose often 46.1 µM), inactives show at the highest dose activity change, negative = inhibition; active means falling FRET ratio curve, often poorly fitted, with flat reads before Ran was added; inconclusive means other falling curves, or compound fluorescence or quenching; inactive means flat or rising ratio curve;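 further: potency means the concentration at half of the fitted maximal effect; % of control where 0% means no effect; nearly all actives have a fitted effect of over 45% in size; -100% = wells without RanGTP and RCC1; the record marks most hits as doubtful in a second field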
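Rango FRET biosensor (snurportin-1 IBB flanked by N-terminal EYFP and C-terminal CFP10) at 0.1 uM, with 0.25 uM importin beta in PBS, 1mM DTT, 0.02% Tween-20, 0.1% BSA. 0.6 uM Ran, 2mM GTP and 0.2 uM RCC1 were then added for 45 min at room temperature. Inhibition read as loss of FRET rise.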
miR-21 FLuc = qHTS Assay for Modulators of miRNAs and/orActivators of miR-21 | HeLa miR-21 FLuc reporter, luciferase, 48 h | AID 2288, 2010 | Potency, µM (doses to about 38.3 µM), inactives show top-dose reporter change, positive = more light | 340,000 tested, under 10 active; active = well fitted rising curve with a large enough effect; inconclusive = small, poorly fitted or top-dose-only effect; inactive = no such curve, though single readings can be large or run the other way;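 further: % of control where 0% means no effect; miR-21 action dims this reporter so a rising signal means less miR-21 action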
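HeLa cells stably expressing CMV-driven firefly luciferase with a downstream miR-21 binding sequence, endogenously expressing miR-21, were treated with titrations (up to about 40uM final) for 48 hours at 37 degree Celsius. Luciferase luminescence was read after lysis.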
Rango complex inh = qHTS Assay for Inhibitors of Rango (Ran-regulated importin-beta cargo) - Importin beta complex formation; Importin subunit beta-1 (Homo sapiens), Q14974; Rango CFP/YFP FRET sensor + importin beta, 45 min; Potency, µM (highest dose often 92.2 µM), inactives show at the highest dose inhibition of complex formation; 0.031% of 340,000 active; active = rising FRET ratio curve, often small or poorly fitted; inconclusive = mostly compound fluorescence or quenching in the first reads; inactive = flat curves in all reads;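 further: potency means the concentration at half of the fitted maximal effect; 0% = DMSO wells and 100% = buffer wells lacking importin beta; nearly all actives have a fitted effect of over 15% in size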
Target sequence (Q14974 whole entry, looked up): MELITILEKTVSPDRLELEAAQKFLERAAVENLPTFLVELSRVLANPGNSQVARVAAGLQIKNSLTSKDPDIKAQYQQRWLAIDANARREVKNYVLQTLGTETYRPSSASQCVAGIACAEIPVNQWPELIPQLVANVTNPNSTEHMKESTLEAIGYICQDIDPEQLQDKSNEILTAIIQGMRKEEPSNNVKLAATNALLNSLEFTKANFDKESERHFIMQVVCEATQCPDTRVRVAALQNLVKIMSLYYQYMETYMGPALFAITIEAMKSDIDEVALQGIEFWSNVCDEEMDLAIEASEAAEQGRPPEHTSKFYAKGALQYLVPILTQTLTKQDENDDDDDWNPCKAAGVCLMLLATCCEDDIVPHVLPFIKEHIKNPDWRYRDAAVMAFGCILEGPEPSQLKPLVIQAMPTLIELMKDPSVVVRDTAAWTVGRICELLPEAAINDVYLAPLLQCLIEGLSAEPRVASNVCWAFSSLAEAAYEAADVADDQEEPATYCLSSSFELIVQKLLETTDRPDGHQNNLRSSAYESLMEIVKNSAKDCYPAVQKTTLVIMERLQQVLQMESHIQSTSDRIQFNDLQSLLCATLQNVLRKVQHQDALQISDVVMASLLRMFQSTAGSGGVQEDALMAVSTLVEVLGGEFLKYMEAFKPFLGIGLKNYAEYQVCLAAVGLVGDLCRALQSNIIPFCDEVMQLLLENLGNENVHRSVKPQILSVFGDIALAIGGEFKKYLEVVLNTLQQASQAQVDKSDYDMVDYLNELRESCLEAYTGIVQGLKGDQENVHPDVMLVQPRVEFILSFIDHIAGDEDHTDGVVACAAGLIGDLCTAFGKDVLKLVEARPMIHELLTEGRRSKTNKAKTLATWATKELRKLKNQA
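Inhibition scored from the CFP 486 nm/YFP 530 nm FRET ratio 45 min after adding 0.125 microM importin beta to 50 nM Rango biosensor preincubated 5 min with compound (room temperature, PBS with DTT, Tween-20, BSA). No-importin wells as positive control.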
GLA inh pH 4.5 = qHTS Assay for Inhibitors of Human alpha-Galactosidase at pH 4.5; Alpha-galactosidase A (Homo sapiens), P06280; purified enzyme, 4-MU-alpha-Gal fluorescence, pH 4.5; activity change, negative = inhibition, % at 105 µM; 230,000 tested, under 10 active; inconclusive = small, poorly fitted or top-dose-only inhibition, or a rising curve; inactive = flat fitted curve, though single readings scatter; no compound was filed as active;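 further: 0% = full activity with enzyme and -100% = basal without enzyme; dose as in the result columns while the protocol names 77 µM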
An asterisk follows results filed as active; ? = inconclusive; . = not tested or not shown. A portion of the library; the hit share may differ from the screen's.

Rango release inh	miR-21 FLuc	Rango complex inh	GLA inh pH 4.5	compound
-29.6%	0.7%	?	-0.4	COc1ccc(NC(=O)Cn2c(=O)sc3ccccc32)c(OC)c1
0.7%	-3.8%	2.7%	.	Cc1c(C(=O)N2CCOCC2)c(S(=O)(=O)N2CCN(c3ccc(Cl)cc3)CC2)c(C)n1C
23.2%	-1.8%	-1.8%	.	CC(=O)c1ccc(NC(=S)N2CCN(CCO)CC2)cc1
-7.8%	-8.2%	-1.4%	8.1	CC(=O)Cc1ccccc1OC(=O)c1ccco1
6.3%	-2.5%	0.1%	.	CCCCN(C(=O)c1cccc(S(=O)(=O)N2CC(C)OC(C)C2)c1)c1c(N)n(CC(C)C)c(=O)[nH]c1=O (stereo unspecified)
-8.6%	-8.6%	0.3%	-17.2	COc1ccccc1/C=C/C=N/n1c(-c2cc(C)[nH]n2)n[nH]c1=S
-16.2%	4.9%	1.8%	.	COc1cccc(CN2CCN(C(=O)c3oc4c(F)cccc4c3C)CC2=O)c1
-7.0%	-3.6%	-0.8%	.	CN(CC(=O)Nc1ccc(F)cc1)C(=O)CN1C(=O)NC2(CCCc3ccccc32)C1=O (stereo unspecified)
22.9%	-6.8%	0.5%	-6.4	Cc1cc(Nc2cc(Cl)cc(Cl)c2)nc(N)n1
8.3%	-10.9%	1.3%	-0.9	C=CCOc1c(OC)cc(/C=N/Nc2cccc(C(=O)O)c2)c(Br)c1Br
-28.3%	-7.8%	?	1.1	CCCCn1c(=O)c(CC(C)=O)nc2ccccc21
33.9%	.	-4.9%	.	COc1ccc(C2=NOC(C3(S(=O)(=O)c4ccccc4)CC(O)C3)C2)cc1 (stereo unspecified)

Next part; it opens with the 2 that closed the last part.
Rango release inh	miR-21 FLuc	Rango complex inh	GLA inh pH 4.5	compound
-28.3%	-7.8%	?	1.1	CCCCn1c(=O)c(CC(C)=O)nc2ccccc21
33.9%	.	-4.9%	.	COc1ccc(C2=NOC(C3(S(=O)(=O)c4ccccc4)CC(O)C3)C2)cc1 (stereo unspecified)
-7.6%	?	0.6%	10.5	COC(=O)C(=Cc1ccccc1[N+](=O)[O-])C(=O)OC
-3.5%	-3.8%	-2.8%	.	O=C1NC2(CCCCCC2)C(=O)N1Cc1ccc(Cl)cc1Cl
3.9%	.	-1.0%	.	Cc1cc(O)cc(=O)n1Cc1ccccc1
0.1%	-48.9%	-1.3%	0.8	CCSc1nnc(NC(=O)C2CCCCC2)s1
4.2%	1.8%	2.2%	.	O=C(N/N=C/c1ccc([N+](=O)[O-])cc1)c1cccnc1
-4.8%	-53.4%	2.3%	-4.4	CN(C)c1ccc(C=Nc2ccc(N(C)C)cc2)cc1
23.5%	-5.9%	-0.5%	6.1	COCCSc1nnc(NC(=O)c2ccc([N+](=O)[O-])cc2)s1
14.6%	0.0%	-1.8%	-3.5	O=C(NC(=S)Nn1cnc2c(cnn2-c2ccccc2)c1=O)c1ccc(Cl)cc1
8.7%	-3.4%	-2.4%	11.8	CC(C)c1ccccc1-n1c(-c2cccnc2)n[nH]c1=S
12.7%	.	-1.6%	.	Cc1ccc(/C=C/C(=O)OCC(=O)NC(=O)NCc2ccco2)cc1
13.5%	0.6%	1.7%	-11.7	Cc1ccc(C(C(=O)NCc2ccccc2)N(C(=O)c2csnn2)c2cccc3ccccc23)o1 (stereo unspecified)
-3.6%	-1.6%	5.9%	.	O=C(COc1ccc2ccc(=O)oc2c1)Nc1ccc(CCO)cc1
-9.3%	-1.6%	6.1%	1.2	C=CCn1c(SCC(=O)Nc2cc(C)on2)nc2sc(CC)cc2c1=O
2.4%	.	4.8%	.	Cc1nc(N2CCN(Cc3ccc4c(c3)OCO4)CC2)c2oc3ccccc3c2n1
10.0%	-5.6%	-1.2%	.	CCc1ccc(NC(=O)CCC(=O)Nc2nnc(C(F)(F)F)s2)cc1
15.9%	-55.9%	-0.8%	7.8	Cc1ccc(CSc2nc3ccccc3c(=O)[nH]2)cc1
2.4%	-1.7%	-1.2%	1.5	C=C(Cl)COc1cc(C)cc2oc(=O)cc(CC)c12
-8.8%	-2.2%	?	.	O=C(C[n+]1cccc2ccccc21)c1ccc(Br)cc1
1.0%	-5.1%	-1.8%	.	COc1ccc(CCC(=O)Nc2ccc(S(=O)(=O)Nc3nccc(C)n3)cc2)cc1
13.8%	-1.2%	?	-9.8	O=C(NCc1ccncc1)C1CCN(S(=O)(=O)Cc2ccccc2)CC1
2.0%	.	0.9%	.	Cc1ccc(-c2noc(CCC(=O)NCc3ccccc3CN3CCOCC3)n2)cc1
-1.5%	.	1.9%	.	CN(CC(=O)Nc1ccccc1C(F)(F)F)C(=O)Cc1ccc(S(=O)(=O)N2CCOCC2)s1
0.1%	-11.5%	0.1%	-6.1	N#CC1=C(S)N(c2ccccc2)C(c2ccc(-c3ccc(Cl)c(Cl)c3)o2)NC1=O (stereo unspecified)
-13.3%	0.4%	0.7%	.	COc1ccccc1NC(=O)CSc1nnc(-c2ccco2)n1N
0.3%	?	-0.1%	7.5	CCOC(=S)SCC(=O)N1CCc2cc(OC)ccc2C1C1C(=O)CCCC1=O (stereo unspecified)
-23.9%	1.4%	-2.2%	5.2	COc1ccc(C(=O)C2C(c3ccc(-c4ccccc4[N+](=O)[O-])o3)NC(=O)NC2(O)C(F)(F)F)cc1 (stereo unspecified)
?	-60.3%	?	.	Cc1cccc(C)c1NC(=O)/C(C#N)=C/c1ccc(-c2ccc(C(=O)O)cc2)o1
17.9%	.	-0.6%	.	CCOc1ccc(S(=O)(=O)N2CCCCC2)cc1NC(=O)c1cccnc1OCC
-16.9%	-16.1%	-0.1%	4.7	O=C(CC1C(=O)NCCN1C(=O)Nc1ccccc1)Nc1cccc(Cl)c1 (stereo unspecified)
-1.0%	-0.2%	0.3%	.	O=C(CCCN1C(=O)/C(=C\c2cccs2)SC1=S)Nc1cc([N+](=O)[O-])ccc1O
-7.7%	1.6%	-4.6%	-6.6	CS(=O)(=O)NN1C(=O)c2ccccc2NC12CCCC2
21.3%	1.8%	-2.7%	6.4	CCCCC(=O)Nc1nc2c(OC)ccc(OC)c2s1
6.7%	-9.5%	-1.1%	-8.1	CNC(=S)NNc1nncc2ccccc12
2.2%	0.9%	-1.3%	-2.1	Cc1noc(C)c1COC(=O)CNC(=O)c1cccc(F)c1
2.0%	-7.7%	-0.1%	3.1	CC(C)(C)CN1CCNC(=O)C1CC(=O)NCCc1cnn(-c2ccccc2)c1 (stereo unspecified)
37.3%	6.3%	0.2%	3.6	O=C(NCCc1c[nH]c2ccccc12)C(=O)NCC1OCCN1S(=O)(=O)c1ccc(F)cc1 (stereo unspecified)
.	-6.0%	.	-3.4	CSc1nnc2n(C3CCCCC3)c(=O)c3c4c(sc3n12)CCCC4
6.7%	-4.5%	0.0%	1.0	CCCc1n[nH]c2c1C(=O)C(C(=O)OC)C(C)(C)C2 (stereo unspecified)
-9.0%	4.8%	2.9%	.	Cc1ccc(-c2cc(-c3ccccc3)nc(NN)n2)cc1
2.5%	-13.6%	-5.7%	-11.0	COc1cccc(-c2cc(C(=O)Nc3cc(C)on3)no2)c1
10.0%	-7.5%	-1.6%	-3.3	COC(=O)c1ccc(-n2c(C)cc(C(=O)COC(=O)CNS(=O)(=O)c3ccc(C)cc3)c2C)cc1
25.9%	?	-0.5%	-3.3	N#Cc1nccnc1S(=O)(=O)c1cccs1
-3.5%	-10.3%	-5.2%	-10.8	COc1ccc(C(=O)Oc2coc(CSc3nnc(NC(=O)c4cccs4)s3)cc2=O)cc1
8.3%	-3.2%	-3.5%	-1.2	O=c1[nH]c2c(n(C3CCCCC3)c1=O)CCC2
-7.1%	5.6%	?	15.7	CC(=O)Nc1ccc2c(COC(=O)[C@H](C)N3C(=O)C4CCCCC4C3=O)cc(=O)oc2c1 (stereo partly specified)
30.8%	-0.3%	-5.5%	1.4	CSC1=NCCN1C(=O)c1ccc(S(=O)(=O)N2CCCCC2)cc1
-6.0%	.	3.5%	.	Cc1ccc(S(=O)(=O)N2CCOCC2)cc1NC(=O)COC(=O)CCc1c[nH]c2ccccc12
0.8%	-61.8%	-2.1%	-9.8	COc1ccc2nc(Nc3nc4cc5c(cc4s3)OCCO5)sc2c1
.	-60.6%	.	7.2	Cc1cccc(NC(=O)C(=O)NCCCc2ccccc2)c1
-0.3%	-1.2%	-0.9%	-4.0	COc1ccc(OC)c(-c2csc(N(Cc3ccco3)C(=O)c3ccco3)n2)c1
0.5%	.	0.3%	.	O=C(Nc1ccc(Cl)c(S(=O)(=O)N2CCCCC2)c1)c1ccco1
-10.3%	-2.7%	-0.9%	-2.0	COC(=O)c1sc2ncn(N)c(=O)c2c1C
13.9%	-1.2%	-0.7%	2.6	COC(=O)c1[nH]c2cc(OC)ccc2c1NC(=O)CCN1CCCCC1
16.5%	-13.6%	1.2%	1.2	CC(C)n1c(-c2cccs2)nc2ccccc21
-2.9%	.	4.8%	.	COC(=O)[C@@H]1C[C@@H](C(=O)O)[C@H](C)C1(C)C
2.9%	0.0%	1.3%	0.2	CC(C)(C)SCCNS(=O)(=O)c1ccc2ccccc2c1
19.1%	-52.8%	-1.8%	-5.9	C/C(=N\NC(=O)c1ccc(Br)cc1)c1ccccc1
-8.8%	-2.7%	1.2%	-1.6	O=C(Oc1ccc(N2C(=O)CCC2=O)cc1)c1ccccc1
1.0%	2.6%	-3.0%	-0.9	CCOC(=O)CCCNC(=O)COC(=O)/C=C/c1ccc2c(c1)OCO2
5.8%	-0.7%	1.2%	-2.0	O=C(O)c1ccc(Cl)c(S(=O)(=O)NC(Cc2ccccc2)C(=O)O)c1 (stereo unspecified)

Following part
Rango release inh	miR-21 FLuc	Rango complex inh	GLA inh pH 4.5	compound
-11.1%	-46.4%	0.8%	.	COc1ccc2[nH]c3c(c2c1)CCn1c-3nc2ccccc2c1=O
-7.1%	-3.6%	-4.9%	7.7	CC(=O)NN1C(=O)c2ccccc2NC1c1ccoc1 (stereo unspecified)
?	-3.5%	0.7%	-0.7	CC1c2nc3ccccc3n2C(CC(=O)NCc2ccccn2)C(=O)N1Cc1ccccc1 (stereo unspecified)
?	-2.7%	?	-4.1	Cc1nn(Cc2ccc(Cl)cc2)c(=O)n1N(C)c1ncc(C(F)(F)F)cc1Cl
-9.8%	.	4.9%	.	CCOC(=O)c1ccc(NC(=O)CCN2C(=O)C3CC=CCC3C2=O)cc1 (stereo unspecified)
16.7%	.	-0.8%	.	Cc1cccc(NC(=O)CSCC(=O)Nc2cccc(S(=O)(=O)N3CCCCCC3)c2)c1
5.3%	.	-0.1%	.	COc1ccc2nc(C3CCCCC3)c3c(c2c1)CCC3
-18.9%	-6.2%	-1.0%	1.3	Cc1cccc(C2c3[nH]c4ccccc4c3CCN2C(=O)c2cc(CC(C)C)nc(C)n2)n1 (stereo unspecified)
6.6%	-2.1%	3.7%	.	COCCCN1CC(=O)N2C(c3ccccc3)c3[nH]c4ccccc4c3C[C@H]2C1=O (stereo partly specified)
5.9%	-4.2%	2.9%	-8.0	O=C(COc1ccc(Cl)cc1)NCc1nnc(SCC(=O)NC2CCCCC2)o1
-9.4%	0.3%	-0.4%	7.9	Cc1cc(C(=O)OCC(=O)Nc2ccc(F)c(F)c2F)c(C)o1
-0.7%	5.8%	5.2%	.	COc1ccc(C(=O)N/N=C(/C)c2cccc(NC(=O)c3ccncc3)c2)cc1OC
1.9%	-3.0%	1.2%	.	Cc1nn(-c2ccccc2)c(C)c1NC(=O)COC(=O)c1ccccc1OC(F)F

High-throughput results deposited in PubChem by National Center for Advancing Translational Sciences (NCATS).
